Autofluor counter: compound fluorescence in toxin protease inhibitor counterscreen; compound autofluorescence counterscreen, microsphere flow cytometry; hits give high values; fluorescence intensity (test concentration not listed); actives 3.1% (n = 360,000); AID 624483;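 active = at least 3 SD above the mean of all compounds, about 16000 in these data; inconclusive = too few beads counted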;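 note: 100 nL of 1 mM stock went into each well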
ugtP null kill: compounds lethal to S. aureus RN4220 ugtP deletion mutant; actives 0.54% (n = 330,000); growth inhibition, % (test concentration not listed); OD600 growth, 16 h; some inactives read as strong as hits; AID 1259309;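 active = z-score under -3 and OD600 up to 0.15 on both plates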;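 note: plate controls were untreated wells for no effect and antibiotic for full effect; wells of about 80 µL received 100 nL stock; the first replicate is given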
Sa RN4220 lethal: S. aureus RN4220 growth inhibition; inhibition, % (test concentration not listed); OD600, 16 h; actives 0.33% (n = 330,000); AID 1259311;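 active = z-score of -3 or lower and OD600 up to 0.18 on both plates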;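 note: plate controls were untreated cells for no effect and reference antibiotic for full effect; stock transfer was 100 nL into about 80 µL; one replicate is shown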
BJeLR lethal: kills HRASV12-expressing BJeLR cells. BJeLR (HRASV12) viability, CellTiter-Glo ATP luminescence, 48 h; reference of the scale not given here. inhibition, % (concentration not given with the values). actives 0.17% (n = 300,000);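 active = replicate mean above 50%; inconclusive = above 50% but judged a plate artefact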;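 note: 50 nL library stock added to about 25 µL; numbers are from one replicate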
Mtb hypoxia inh: reduces hypoxia-regulated biosensor signal in M. tuberculosis; fluorescence inhibition, % (no concentration beside the values); actives 0.1% (n = 300,000); M. tuberculosis hypoxia-regulated fluorescent reporter, fluorescence; AID 1159583;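 active = 35 to 45% if threefold the growth effect, above 45% if 1.5-fold the growth effect; inactive = the rest, general growth blockers included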;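 note: wells of about 50 µL received 100 nL stock; 0% = vehicle wells and 100% = reference inhibitor wells; whole bacteria with a GFP reporter of the hypoxia response; strong numbers were not always called active; many hits fall short of the cut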
PrP 5UTR inh: inhibition of PrP 5' UTR reporter expression. cell-based PrP 5' UTR mRNA reporter, plate reader. inhibition, % (test concentration not listed). actives 0.35% (n = 340,000). AID 488862;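 active = every replicate at 50% or more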;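 note: 0 = median of the neutral control wells; tested in H4 reporter cells; numbers are from one replicate; inactives centre near -14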
Mtb hypoxia inh growth: further read-out of Mtb hypoxia inh, marked with its call; growth inhibition, %; measured here: M. tuberculosis growth (absorbance);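 0% = vehicle and 100% = reference antibiotic; read after six days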
Starred values were filed as active, the others as inactive; ? = inconclusive; nt = no result given; & = joins results of further samples.

item	structure	Autofluor counter	ugtP null kill	Sa RN4220 lethal	BJeLR lethal
1	O=C(c1ccc(N2CCCC2=O)cc1)N1CCN(c2ccccc2F)CC1	5867	6	2.7	-8
2	COc1cc(CNc2ncn[nH]2)cc(Br)c1OC	23846*	3	1.0	20
3	CCCc1nc2oc3ccccc3c(=O)c2c(=O)n1-c1ccc(C)cc1	5260	-14	4.7	-8
4	Cc1cccc(/C=C2\CCC(C3CCCC3)C2=O)c1 (stereo not given)	2305	11	7.8	6
5	COc1ccccc1-c1nc(N)n[nH]1	4131	-15	-2.8	0
6	CCn1cc(C(=O)NCc2ccco2)c2cc(OC)c(OC)cc2c1=O	4000	1	0.2	-12
7	COC(=O)C1=C(C)NC(C)=C(C(=O)OCC2CCCO2)C1c1cccc(Cl)c1 (stereo not given)	5730	7	1.4	-4
8	COc1ccc(C(=O)N/C(=C\c2ccccc2)C(=O)Nc2ccccc2C(=O)O)cc1	6022	2	4.5	-11
9	COCCCN(Cc1ccco1)C(=O)c1cc2c(s1)-c1ccc(Cl)cc1S(=O)(=O)C2	5679	0	-1.0	-2
10	C=C(C)C(=O)Nc1cccc(C2=NOC3(C2)CC(C(N)=O)N(C(=O)C=CC)C3)c1 (stereo not given)	nt	-4	1.6	nt
11	CCOC(=O)c1c(NC(=O)c2cc(CC(C)C)on2)sc(C(C)=O)c1C	5232	-6	-7.7	-3
12	O=c1ccc(Cl)cn1Cc1ccccc1F	3686	3	4.2	6
13	CN(C)C1(CNC(=O)C2CCC(=O)N(CCc3ccc(Cl)cc3)C2)CCCCC1 (stereo not given)	6012	8	2.1	0
14	CN(Cc1ccccn1)C(=O)C1CCC(=O)N(CCc2ccc(Cl)cc2)C1 (stereo not given)	6455	1	3.4	6
15	Cc1ccc(C(=O)NC2CCN(S(=O)(=O)c3ccccc3)CC2)cc1	3657	5	1.7	-10

item	Mtb hypoxia inh	Mtb hypoxia inh growth	PrP 5UTR inh
1	5	-3	-20
2	9	3	-29
3	-4	13	nt
4	12	12	-25
5	-18	9	-16
6	4	6	-4
7	8	7	-21
8	13	17	-14
9	4	7	3
10	-2	5	nt
11	1	3	4
12	6	3	-21
13	10	-21	-19
14	2	3	-4
15	-6	13	-5

(cont.)
item	structure	Autofluor counter	ugtP null kill	Sa RN4220 lethal	BJeLR lethal
16	Cn1c(=O)c2c(nc(CN3CCN(c4cccc(Cl)c4)CC3)n2CCc2ccccc2)n(C)c1=O	2820	0	-2.2	3
17	Nc1nnc(SCc2ccc(F)cc2)s1	23088*	16	4.7	-4
18	COc1cccc(NC(=O)CSc2nnc(C)s2)c1	9558	-9	5.5	-24
19	C/C=C/Cn1c(SCc2ccc(C)cc2)nc2c1c(=O)[nH]c(=O)n2C	3743	2	-0.9	2
20	CCC(=O)c1ccc(OCC(=O)N2CCCC2)c(OC)c1	4329	8	5.2	0
21	O=c1c(Cc2ccc(Cl)cc2Cl)c(O)ccn1CCCN1CCOCC1	4072	6	7.4	4
22	O=C1CCCN1C(=O)CSc1ncnc2sccc12	?	5	4.4	nt
23	Cc1ccsc1/C=N/NC(=O)CNC(=O)c1c(F)cccc1Cl	5452	nt	nt	-7
24	CCn1c(CNC(=O)COc2ccc(C(C)C)cc2)nnc1SCC(=O)Nc1ccccc1F	5732	5	19	-2
25	COc1ccc(NC(=S)N2CCNC(=O)C2CC(=O)Nc2ccc(C)cc2)cc1 (stereo not given)	2545	0	2.6	13
26	COc1cccc(-c2cc(C(=O)N3CCN(S(=O)(=O)c4ccc(Br)cc4)CC3)[nH]n2)c1	4413	-5	3.0	-13
27	Cc1ccc(-n2ncc(C(=O)Nc3cc(Cl)ccc3C)c2C2CCNCC2)cc1C	2483	6	1.3	0
28	CC(C)(C)C1C=C(C(=O)NCc2ccccc2)OC(OCc2ccc(CO)cc2)C1 (stereo not given)	nt	2&-10	7.0&1.5	nt
29	O=C(CSc1ncnc2c1cnn2-c1ccccc1)NCC1CCCO1 (stereo not given)	5382	1	-0.5	13
30	CCc1ccc(NC(=S)N2CCN(C)CC2)cc1	5592	-1	0.2	-3

item	Mtb hypoxia inh	Mtb hypoxia inh growth	PrP 5UTR inh
16	nt	nt	-14
17	6	0	-6
18	-1	11	-32
19	nt	nt	-3
20	13	-1	-31
21	7	7	-54
22	7	-9	-26
23	nt	nt	1
24	11	6	-8
25	4	9	-16
26	10	-3	-23
27	14	8	7
28	1&2	2&9	nt
29	6	3	-20
30	-3	8	-40

(continued)
item	structure	Autofluor counter	ugtP null kill	Sa RN4220 lethal	BJeLR lethal
31	COc1cc(/C(C#N)=C/c2cccc3ccccc23)c([N+](=O)[O-])cc1OC	1933	-3	0.8	4
32	CCCSc1nnc2n(C)c(=O)c3c4c(sc3n12)CCC4	4134	-11	-3.8	2
33	Cc1ccc(C(=O)N/C(=C\c2cccs2)C(=O)NCc2ccncc2)cc1	?	4	0.0	-1
34	CC(=O)Nc1ccc(NC(=O)CC(C)=NNC(=O)C(=O)N2CCCC2)cc1	nt	5	6.0	nt
35	COc1ccc(NC(=O)c2coc(C)c2)cc1	3059	1	4.1	1
36	O=C(c1ccccc1)N1CCN(C(=S)NCCc2ccccc2)CC1	2000	6	0.1	-16
37	OCCN1CCN(c2ncnc3scc(-c4ccc(F)cc4)c23)CC1	3024	14	4.4	-2
38	O=C(COC(=O)c1cc(=O)[nH]c2ccccc12)c1cccs1	3410	5	0.2	-3
39	Cc1cc(C)c(C)c(S(=O)(=O)Nc2ccc(O)cc2)c1C	2449	-1	3.9	5
40	O=C(COC(=O)c1c(Cl)cccc1Cl)NCC1CCCO1 (stereo not given)	?	4	4.3	3
41	S=C(NCCc1ccccn1)Nc1ccc(Cl)c(Cl)c1	1944	-11	-9.4	-14
42	O=C(O)c1ccc(N2CC3CC(C2)c2cccc(=O)n2C3)c(NC(=S)Nc2ccc(Cl)cc2Cl)c1 (stereo not given)	4472	9	1.8	7
43	NC(=O)[C@@H]1CCCN1C(=O)c1ccc2oc(CCc3ccccc3)nc2c1	4537	7	1.4	-6
44	COC(=O)c1cc(OC)c(OC)cc1NC(=O)c1ccccc1	2822	-13	6.5	0
45	COc1ccc(Cc2nnc(NC(=O)c3cccc([N+](=O)[O-])c3)s2)cc1	1942	5	3.0	-11

item	Mtb hypoxia inh	Mtb hypoxia inh growth	PrP 5UTR inh
31	-1	4	-13
32	14	3	-26
33	6	9	-2
34	7	8	nt
35	-3	10	-22
36	6	5	-23
37	0	4	9
38	1	-3	-19
39	nt	nt	-26
40	9	2	-15
41	2	-4	-18
42	11	5	-27
43	14	-3	-29
44	nt	nt	-8
45	10	0	-2

Other results.
item	structure	Autofluor counter	ugtP null kill	Sa RN4220 lethal	BJeLR lethal
46	CC1=C(n2ccnc2)CCC1=O	3778	0	5.2	3
47	c1ccc(CN2CCN(C(c3ccccc3)c3ccccc3)CC2)cc1	4341	25	-4.3	3
48	CCOC(=O)c1c(OCC)[nH]c2c1cc(O)c1ccccc12	9893	-11	28	-6
49	CCOC(=O)c1ccccc1NC(=O)/C(C)=C/C(=O)O	5929	-3	1.4	-2
50	CS(=O)(=O)ON=C1CCCCC1c1ccc([N+](=O)[O-])cc1[N+](=O)[O-] (stereo not given)	nt	8	6.4	nt
51	COc1ccccc1NC(=O)NNC(=O)c1cc2ccccc2cc1O	5754	-2	-2.2	-17
52	Cc1ccc(-c2nc(S(=O)(=O)c3ccccc3)c(SCC(=O)NCC3CCCO3)o2)cc1 (stereo not given)	6213	11	1.4	0
53	COc1ccc(CN2CCN(C(=O)Cn3c(=O)oc4cc(Cl)ccc43)CC2)c(OC)c1OC	4238	-4	3.3	9
54	CC(C)C(=O)Nc1nnc(CCN(CCc2nnc(NC(=O)C(C)C)s2)[N+](=O)[O-])s1	3561	5	2.7	-1
55	Cc1ccc2nc(-c3cccnc3SCC(=O)N3c4ccccc4CC3C)[nH]c2c1 (stereo not given)	10920	-19	-3.3	11
56	Cc1ccc(CNC(=O)COc2ccc(S(=O)(=O)N3CCOCC3)cc2)cc1	5694	12	-1.1	-1
57	Cc1cccc(Cn2ccc(NC(=O)c3ccc4c(c3)OCO4)n2)c1	3173	-17	9.9	-5
58	COc1ccc([N+](=O)[O-])cc1NC(=O)CSCc1cc(C)cc(C)c1	2124	-4	8.5	1
59	CCOC(=O)CC[C@H](NC(=O)Cn1cnc(C(=O)Nc2ccc(C)c(C)c2)n1)C(=O)OCC	3521	3	2.5	nt
60	COc1ccc(N(C)C(=O)CCS(=O)(=O)c2cccc3nsnc23)cc1	3681	2	3.3	-7

item	Mtb hypoxia inh	Mtb hypoxia inh growth	PrP 5UTR inh
46	4	2	-6
47	-6	7	-35
48	7	0	-10
49	10	18	0
50	6	-2	nt
51	-5	5	-19
52	-2	6	-6
53	-11	10	-9
54	-1	-4	-2
55	-5	3	-13
56	3	-2	-18
57	nt	nt	9
58	4	4	-28
59	-7	13	-16
60	-3	-3	-15

(more compounds)
item	structure	Autofluor counter	ugtP null kill	Sa RN4220 lethal	BJeLR lethal
61	COc1ccc(CC(=O)N/N=C(\C)CC(=O)Nc2ccc(N(C)C)cc2)cc1	3349	nt	nt	-9
62	CCCCNC(=O)NC1CCCC1	9460	9	1.3	7
63	CCCCN1C(=O)C(=O)N(CC(=O)Nc2ccccc2C(=O)OCC)C1=O	6400	-2	1.4	5
64	CCc1ccc(C(=O)N/N=C/c2ccncc2)s1	4625	nt	nt	2
65	CCc1ccccc1N(CC)C(=O)C1CCN(c2ncnc3c2nc2n3CCCCC2)CC1	5407	-4	-4.3	4
66	Cc1cc(NC(=O)Cc2cn3ccsc3n2)n(-c2ccccc2)n1	2899	-3	-10	-3
67	CCc1nnc(NC(=O)CCN2C(=O)c3ccccc3S2(=O)=O)s1	7807	5	5.3	1
68	CCN(CC)C(=O)C1CCCN(Cc2ccc3c(c2)OCO3)C1 (stereo not given)	2466	0	7.0	12
69	O=C1c2cccc3cccc(c23)C(=O)N1CC1CCCO1 (stereo not given)	3650	6	6.0	-5

item	Mtb hypoxia inh	Mtb hypoxia inh growth	PrP 5UTR inh
61	nt	nt	-21
62	nt	nt	-10
63	12	0	-15
64	nt	nt	-12
65	0	4	-17
66	3	6	-17
67	6	11	-19
68	nt	nt	-14
69	5	16	-13
